Bioassay records from PubChem BioAssay.
Vaccinia pol inh = vaccinia E9 polymerase processive synthesis inhibitors, primary screen, biochemical, absorbance | AID 493162, 2011 | 46,000 compounds, 0.94% hits | normalized absorbance, % (concentration not given with the values) | in vitro processive DNA synthesis, absorbance read-out; stronger effect = lower value; some inactives read as strong as hits | Vaccinia virus DNA polymerase (E9) processive complex;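 active = replicate mean up to 90% and picked by the depositor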;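 note: 100% = median of the test wells of a plate; 100 nL library stock went into each well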
* = called active by the depositor. An excerpt (hit frequency here may not be typical).

| Molecule | Vaccinia pol inh |
| --- | --- |
| CC1=NN(c2ccc(Br)cc2)C(=O)/C1=C/c1ccc(-c2ccc3c(c2)C(=O)NC3=O)o1 | 99 |
| Cc1[nH]c2ccccc2c1SCC(N)=O | 100 |
| Cn1c(C(=O)N2CCCCC2)cc2sccc21 | 103 |
| Cc1cccc(NC(=S)NN)c1 | 106 |
| O=C(/C=C/c1ccccc1)/C=C/c1ccco1 | 78 |
| COc1cccc(NC2C=CS(=O)(=O)C2)c1 (stereo unspecified) | 91 |
| CCOC(=O)c1oc2ccc3c(c2c1C)C(=O)CC1(CCCC1)O3 | 87 |
| Cc1nc2sccn2c(=O)c1CCN1CCC(=C(c2ccc(F)cc2)c2ccc(F)cc2)CC1 | 96 |
| CCC(=O)Nc1sc2c(c1C#N)CCC2 | 102 |
| O=C(NC1CCCC1)c1ccc2c(c1)sc1nc(-c3ccccc3)cn12 | 102 |
| CN=C(Nc1cc(C)nn1CCC#N)c1ccccc1F | 104 |
| Cc1nc2scc(-c3cccs3)c2c(=O)n1-n1cccc1 | 97 |
| O=C1NC(=O)N(c2ccc(Cl)cc2)C(=O)/C1=C/c1ccc(Cl)cc1 | 98 |
| O=C(COC(=O)c1ccc(F)cc1Cl)NCc1ccco1 | 88 |
| CC(=O)Nc1ccc(NC(=O)c2cccc(C(=O)OC(C)C)n2)cc1 | 100 |
| O=C1c2ccccc2-c2nn(C(=O)c3ccncc3)c3cccc1c23 | 79 |
| COc1ccc(OC)c(C2NC(C(=O)O)C3C(=O)N(c4cccc(C(=O)O)c4)C(=O)C23)c1 (stereo unspecified) | 101 |
| Cc1ccc(NC(=O)c2cccc(OC(=S)NCc3ccccc3)c2)cc1 | 95 |
| O=C(CC1CCCCCCCCCCC1)N1CCOCC1 | 100 |
| CN(CC(C)(C)NS(=O)(=O)c1ccccc1)C1CCCCC1 | 106 |
| O=C(Nc1nc(-c2ccccc2)cs1)c1cccs1 | 99 |
| Cc1ccsc1-c1nc(CSCC(=O)O)c(C)o1 | 102 |
| CN1C(=O)S/C(=C\C=C\c2ccccc2)C1=O | 108 |
| CN1CCC/C1=C/C=C1\SC(=S)NC1=O | 98 |
| CN1C/C(=C/c2ccccn2)C(=O)/C(=C/c2ccccn2)C1 | 104 |
| COc1ccc(C(F)(F)F)cc1-n1ccc(-c2ccc(C)cc2)nc1=S | 93 |
| CN(C)CCNC(=O)c1cc2c(s1)-c1ccccc1S(=O)(=O)C2 | 101 |
| CC(=O)Oc1ccc(C)cc1C(O)(C(F)(F)F)C(F)(F)F | 105 |
| COC(=O)Cn1c(=O)c2c(nc3n2CCN3c2ccccc2)n(C)c1=O | 104 |
| O=C1c2ccccc2-c2n[nH]c3cccc1c23 | 96 |
| CCn1c(C(=O)N2CCCC(C(=O)NC3CCCC3)C2)cc2sccc21 (stereo unspecified) | 103 |
| COC(=O)c1ccc(CNC(=O)COc2ccc(Cl)cc2Cl)cc1 | 102 |
| C=Cn1c(C(=O)O)ccc1-c1ccc(CC)cc1 | 92 |
| COc1cccc(CSCC(=O)NCc2ccccc2Cl)c1OC | 98 |
| COc1ccc(CCNC(=O)c2cc3ccccc3s2)cc1OC | 97 |
| O=C(CCCOc1ccc(Cl)cc1)NCC1CCCO1 (stereo unspecified) | 97 |
| COC(=O)C(N)c1c[nH]c2ccccc12 (stereo unspecified) | 92 |
| COc1ccc2c(c1)CC/C(=C\c1ccsc1)C2=O | 100 |
| COC(=O)CNC(=O)c1cccnc1Sc1cc(OC)ccc1OC | 103 |
| CC1CN(c2nc3ccccc3nc2SCC(=O)Nc2ccccc2)CC(C)O1 (stereo unspecified) | 106 |

Sorted by number of heavy atoms (smallest number first): some entries from above
| Molecule | Vaccinia pol inh |
| --- | --- |
| COC(=O)C(N)c1c[nH]c2ccccc12 (stereo unspecified) | 92 |
| Cc1ccsc1-c1nc(CSCC(=O)O)c(C)o1 | 102 |
| O=C(Nc1nc(-c2ccccc2)cs1)c1cccs1 | 99 |

Continued.
| Molecule | Vaccinia pol inh |
| --- | --- |
| Cc1nc(C(F)(F)F)ccc1C(=O)Oc1ccccc1N1CCCCC1 | 96 |
| N#CC1=C(N)NC(=S)C(C(N)=O)C1c1ccccc1 (stereo unspecified) | 100 |
| O=C(CCCC(=O)OC1CCCC1)OC1CCCC1 | 98 |
| CC(C)(Oc1ccc(Cl)cc1)C(=O)OCC(=O)N1CCc2ccccc21 | 103 |
| Cc1cc2c(cc1S(=O)(=O)NC1CCCC(C)C1C)OCC(=O)N2 (stereo unspecified) | 95 |
| FC(F)(F)c1ccc(N2CCN(c3ccccc3)CC2)nc1 | 100 |
| Cc1nn(-c2ncc(C(F)(F)F)cc2Cl)c(C)c1CS(=O)(=O)c1ccccc1 | 113 |
| CCn1cc(CCCC(=O)N2CCc3ccccc32)c2ccccc21 | 103 |
| Cc1cc2nnc(SCC(=O)NCc3ccco3)n2c2ccccc12 | 95 |
| Cc1cc(C)c(NC(=O)c2cc(=O)c3ccccc3o2)c(C)c1 | 103 |
| CCN(CC)Cc1cc2c(-c3ccccc3)cc(=O)oc2c(C)c1O | 101 |
| O=C(O)CC1N=Cc2ccccc21 (stereo unspecified) | 101 |
| COc1cc2[nH]c(=S)n(C3CC3)c(=O)c2cc1OC | 96 |
| CCOC(=O)C1CCCN(C(=O)c2cccc(C)c2)C1 (stereo unspecified) | 99 |
| CNC(=O)n1cc(C)c(-c2cccs2)n1 | 101 |
| Cc1cc(CN2CCc3ccccc3C2)cs1 | 108 |
| N#CC(c1ccc(O)cc1)N1CCN(C(C#N)c2ccc(O)cc2)CC1 (stereo unspecified) | 105 |
| O=C(CSc1ncccn1)Nc1ccccc1C(F)(F)F | 98 |
| COc1cccc(/C=C2/NC(=O)N(c3ccccc3)C2=O)c1 | 100 |
| CC1=NN(c2nc3ccccc3[nH]2)C(=O)C1Cc1ccccc1 (stereo unspecified) | 106 |
| CCN(CC)c1nc2ccccc2c(=O)n1-c1ccccc1 | 99 |
| C=CCSc1nc2c(cnn2-c2ccccc2)c(=O)[nH]1 | 96 |
| CC(=O)Nc1ccc(NC(=O)C(C)Oc2ccccc2)cc1 (stereo unspecified) | 102 |
| Cc1cc2ccccc2n1CCNC(=O)C(C)(C)C | 99 |
| O=C1CN(/N=C/c2ccc([N+](=O)[O-])o2)C(=O)N1 | 96 |
| O=S(=O)(NC1=NCCCN1)c1cc(C(F)(F)F)cc(C(F)(F)F)c1 | 96 |
| Cn1cc(C2CC(=O)N(c3ccc(Br)cc3)C2=O)c2ccccc21 (stereo unspecified) | 115 |
| COc1cc(C(=O)Nc2cccc(O)c2)c2ccccc2n1 | 103 |
| Cc1cccc2sc(NN)nc12 | 61* |
| COc1cc(OC)c(NC(=O)c2cc3ccccc3cc2O)cc1Cl | 98 |
| Cn1nc(C(F)(F)F)cc1C(=O)O | 97 |
| COC(=O)Oc1ccc2c3c(c(=O)oc2c1)CCCC3 | 101 |
| COc1ccc(/C=C/C(=O)N2CCCc3ccccc32)cc1OC | 96 |
| CCCN(CCC)C(=O)CC(c1ccccc1)c1cc(C)ccc1O (stereo unspecified) | 100 |
| CCCS(=O)(=O)N1CCN(Cc2ccco2)CC1 | 99 |
| Cc1nnc(NC(=O)COc2ccc(Cl)cc2)s1 | 101 |
| COc1ccc2c(c1)S(=O)(=O)c1ccccc1N2 | 92 |
| Cc1nc2ccccc2cc1C(=O)NCc1cccnc1 | 114 |
| Cc1ccc(NC(=S)NCC2COc3ccccc3O2)cc1 (stereo unspecified) | 108 |
| O=C(OCc1ccccc1)C1=COCCO1 | 103 |
| C[N+]1(CC2COC(c3ccco3)O2)CCCCC1 (stereo unspecified) | 100 |
| CC1CCCC(C)N1c1nn(C)c(=O)[nH]1 (stereo unspecified) | 96 |
| CSc1nsc(SC)c1NC(=O)N1CCCCC1 | 101 |
| CC(C)C1(C)N=C(c2ccc3c(c2)OCO3)CC(c2ccccc2O)N1 (stereo unspecified) | 100 |
| COc1ccc(-c2ccc3ccccc3n2)cc1OC | 101 |
| O=C(COC(=O)C1CCCCC1)NCc1ccc(Cl)cc1 | 98 |
| Cc1cc(NC(=O)c2sc(Nc3cccc(C(F)(F)F)c3)nc2N)no1 | 101 |
| CCCOC(=O)Cn1cnc2sc(C)c(C)c2c1=O | 105 |
| COc1ccc(-c2cc(C(=O)Nc3ccc(F)cc3)c(C(F)(F)F)o2)cc1 | 105 |
| C=CCSc1nc2ccccc2[nH]1 | 90* |
| O=C(Nc1ccccc1I)C1(S(=O)(=O)c2ccccc2)CCCC1 | 105 |
| N#Cc1cnc(SCC(=O)NC(=O)Nc2ccccc2)nc1N | 108 |
| COc1cc2c(cc1OC)C1(CCCC1)CN(C(=O)c1cc(Br)ccc1OC)C2 | 91 |
| CC(C)(C)c1ccc2c(c1)c1c3n2CCN(CCC#N)C3CCC1 (stereo unspecified) | 99 |
| CC1=NNC(=O)C1C(c1ccccc1F)C(C#N)C#N (stereo unspecified) | 100 |
| CNC(=O)c1ccc2snnc2c1 | 99 |
| CN(C)c1nc(N)nc(C2CCCN2S(=O)(=O)c2ccc3ccccc3c2)n1 (stereo unspecified) | 96 |
| CCOC(=O)C1C2NC(=S)N[C@]1(C)Oc1ccccc12 (stereo partly specified) | 99 |
| O=C(CCn1c(=O)sc2ccccc21)NCCC1=CCCCC1 | 90 |
| c1ccc(-n2nnnc2-c2ccc3ccccc3n2)cc1 | 85 |

A few values from the list:
CNC(=O)c1ccc2snnc2c1 @ Vaccinia pol inh = 99
CCCOC(=O)Cn1cnc2sc(C)c(C)c2c1=O @ Vaccinia pol inh = 105

(cont.)
| Molecule | Vaccinia pol inh |
| --- | --- |
| CCOC(=O)CC1=NN=C(N)SC1 | 100 |
| CCOc1ccc(N(/C=C2\Sc3ccccc3C2=O)C(=O)c2ccc(C)cc2)cc1 | 100 |
| CCOc1ccc(-c2nc(C#N)c(NCC(C)C)o2)cc1 | 100 |
| Cc1cccc(NC(=O)C2Sc3nnc(-c4ccccc4)n3NC2c2ccccc2)c1 (stereo unspecified) | 97 |
| O=C(COc1ccccc1F)Nc1ccc(I)cc1 | 98 |
| Cc1cc(NC(=O)c2c(F)cccc2Cl)no1 | 98 |
| CCC(C)c1ccccc1N=Cc1ccsc1 (stereo unspecified) | 106 |
| CCS(=O)(=O)NCCc1cc2ccc(OC)cc2[nH]c1=O | 101 |
| C1=CC2CC1CC2CNCc1ccco1 (stereo unspecified) | 103 |
| N#Cc1c(-c2ccccc2)c(C#N)c2sc3ccccc3n2c1=O | 97 |
| COc1ccc(CCNc2nccc(=O)[nH]2)cc1OC | 94 |
| CCSc1nnc(NC(=O)c2ccc3ccccc3c2)s1 | 101 |
| COc1ccc(/C=c2\[nH]c(=O)/c(=C\c3ccc(OC)cc3)[nH]c2=O)cc1 | 98 |
| O=C(OCc1nc2ccccc2s1)c1cccc(N2C(=O)CCC2=O)c1 | 100 |
| CC(Sc1ncnc2nc[nH]c12)c1ccccc1 (stereo unspecified) | 100 |
| O=C(O)c1ccnc(Cl)c1 | 106 |
| CCn1cc(C(=O)N(C)Cc2ccccc2)c2cc(OC)c(OC)cc2c1=O | 97 |
| CCN(CC)CCCNC1=NCC(C)S1 (stereo unspecified) | 106 |
| O=C(O)CNC(=O)COc1ccc(-c2ccccc2)cc1 | 85 |
| CC(C)(C)C(=O)Nc1c[nH]c(=O)[nH]c1=O | 96 |
| CSC1=NCCN1C(=O)COc1ccccc1 | 104 |
| c1ccc(-c2nnc(-c3ccccc3)o2)cc1 | 99 |
| CCCCc1ccc(NS(=O)(=O)CC23CCC(CC2=O)C3(C)C)cc1 (stereo unspecified) | 87 |
| O=C(Cn1ncc2c3ccccc3n(Cc3ccccc3)c2c1=O)N1CCOCC1 | 102 |

Molecules listed so far that contain four or more nitrogen atoms, in the order listed:
| Molecule | Vaccinia pol inh |
| --- | --- |
| CN=C(Nc1cc(C)nn1CCC#N)c1ccccc1F | 104 |
| COC(=O)Cn1c(=O)c2c(nc3n2CCN3c2ccccc2)n(C)c1=O | 104 |
| CC1CN(c2nc3ccccc3nc2SCC(=O)Nc2ccccc2)CC(C)O1 (stereo unspecified) | 106 |
| N#CC1=C(N)NC(=S)C(C(N)=O)C1c1ccccc1 (stereo unspecified) | 100 |
| Cc1cc2nnc(SCC(=O)NCc3ccco3)n2c2ccccc12 | 95 |
| N#CC(c1ccc(O)cc1)N1CCN(C(C#N)c2ccc(O)cc2)CC1 (stereo unspecified) | 105 |
| CC1=NN(c2nc3ccccc3[nH]2)C(=O)C1Cc1ccccc1 (stereo unspecified) | 106 |
| C=CCSc1nc2c(cnn2-c2ccccc2)c(=O)[nH]1 | 96 |
| O=C1CN(/N=C/c2ccc([N+](=O)[O-])o2)C(=O)N1 | 96 |
| CC1CCCC(C)N1c1nn(C)c(=O)[nH]1 (stereo unspecified) | 96 |
| Cc1cc(NC(=O)c2sc(Nc3cccc(C(F)(F)F)c3)nc2N)no1 | 101 |
| N#Cc1cnc(SCC(=O)NC(=O)Nc2ccccc2)nc1N | 108 |
| CC1=NNC(=O)C1C(c1ccccc1F)C(C#N)C#N (stereo unspecified) | 100 |
| CN(C)c1nc(N)nc(C2CCCN2S(=O)(=O)c2ccc3ccccc3c2)n1 (stereo unspecified) | 96 |
| c1ccc(-n2nnnc2-c2ccc3ccccc3n2)cc1 | 85 |
| Cc1cccc(NC(=O)C2Sc3nnc(-c4ccccc4)n3NC2c2ccccc2)c1 (stereo unspecified) | 97 |
| CC(Sc1ncnc2nc[nH]c12)c1ccccc1 (stereo unspecified) | 100 |
| O=C(Cn1ncc2c3ccccc3n(Cc3ccccc3)c2c1=O)N1CCOCC1 | 102 |
